Compound activity deposited in PubChem by National Center for Advancing Translational Sciences (NCATS).
gsp ag: agonists of gsp mutant (McCune-Albright syndrome) | gsp mutant cells, cAMP HTRF, 30 min; control for the full effect not named in the record | Potency, µM (titrated, usually from 76.9 µM), for the others: at the top dose activation (cAMP increase), actives largely listed as activators | 340,000 tested, 0.13% active; active = well fitted activation curve with a large enough effect; inconclusive = small, poorly fitted or top-dose-only effect, or another doubt; inactive = no such curve, though single readings can be large or run the other way; cell line not stated here;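 note: phosphodiesterase inhibitor Ro 20-1724 added with compounds to block cAMP breakdown; potency is the fitted concentration of half-maximal effect; nearly all actives have a fitted effect of over 60% in size; about a fifth of the inactives were tested at one dose only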
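Cells in DMEM/10% FBS with G418 were pretreated with compounds in DMSO plus […] (300 uM stock) for 30 min at 37C. cAMP was measured by HTRF (cAMP-d2 plus anti-cAMP antibody-K) after 30 min at room temperature.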
TRPML1 blocker: blocks the human TRPML1 channel; Q9GZU1; TRPML1-inducible cells, Ca2+ dye fluorescence, FDSS; stronger effect = lower value; inhibition of EC80 agonist-evoked calcium signal; activity change, negative = inhibition, % (concentration not given with the values); 390,000 tested, 0.02% active; AID 624415; in the data active means activity change below about -50%; inconclusive means about -30% to -50%; inactive means above about -30%;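 note: stimulus is agonist 54-4 at its EC80 concentration; % is set by controls: 0 for no effect and ±100 for the full control effect; compound concentration not given in the record; the text of the record puts the active cut at -80%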
Target sequence (Q9GZU1 whole entry, looked up): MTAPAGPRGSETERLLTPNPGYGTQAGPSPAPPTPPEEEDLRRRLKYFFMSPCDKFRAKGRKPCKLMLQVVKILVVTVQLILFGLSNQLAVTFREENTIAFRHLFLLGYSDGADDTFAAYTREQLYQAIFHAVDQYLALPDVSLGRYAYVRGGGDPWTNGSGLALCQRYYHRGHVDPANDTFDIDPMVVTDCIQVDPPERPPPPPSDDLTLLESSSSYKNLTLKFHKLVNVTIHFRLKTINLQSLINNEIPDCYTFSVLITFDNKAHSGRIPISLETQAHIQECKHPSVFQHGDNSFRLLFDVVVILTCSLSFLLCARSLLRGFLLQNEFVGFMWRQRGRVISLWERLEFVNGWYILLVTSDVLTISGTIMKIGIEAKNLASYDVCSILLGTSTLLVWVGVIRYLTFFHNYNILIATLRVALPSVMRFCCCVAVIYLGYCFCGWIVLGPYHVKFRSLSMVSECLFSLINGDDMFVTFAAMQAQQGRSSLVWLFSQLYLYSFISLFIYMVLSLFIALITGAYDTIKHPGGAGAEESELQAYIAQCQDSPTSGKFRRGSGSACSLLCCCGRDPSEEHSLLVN
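Calcium fluorescence in TRPML1-DL cells induced overnight with Tet: a 110 s read after compound pin addition, then a 110 s antagonist read after challenge with 54-4 at 4 uM final (EC80).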
TRPML1 ag: human mucolipin-1 channel agonism. Q9GZU1. 410,000 tested, 0.12% active. activation, % (concentration not given with the values). AID 624414. TRPML1-expressing cells, Ca2+ dye fluorescence, FDSS; host cell line not named in the record; reference of the full effect not given here; in the data active = activation above about 50%; inconclusive = about 30% to 50%; inactive = below about 30%; note: 0% is about no effect; the text of the record puts the active cut at 80%
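Kinetic FDSS Ca2+ read in Tet-induced TRPML1-DL cells (ABD Ca8 dye plus quencher, 45-90 min RT loading): baseline, then compound, then 110 s agonist window; EC80 agonist 54-4 at 4uM final added afterwards for a 110 s antagonist window.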
gsp antag: gsp mutant antagonism | gsp-mutant cells, cAMP HTRF, 30 min; control for the full effect not named in the record | Potency, µM (highest dose often 76.9 µM), for inactives: top-dose activity change, negative = inhibition, usual class: inhibitors | 340,000 tested, 0.4% active; active = falling curve of any shape with a large fitted effect; inconclusive = falling curve, mostly with a smaller effect; inactive = flat or rising curve; cell line not stated here;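 note: intracellular cAMP measured with PDE inhibitor Ro 20-1724 present during compound exposure; potency is the fitted concentration of half-maximal effect; % is set by controls: 0 for no effect and ±100 for the full control effect; nearly all actives have a fitted effect of over 65% in size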
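Measurement of cellular cAMP by homogeneous time-resolved fluorescence following a 30 min compound exposure at 37C. The PDE inhibitor […] was present throughout; the assay buffer was DPBS with 0.05% BSA and 0.005% Tween 20.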
ClpP mod: qHTS Assay for Activators of ClpP; ATP-dependent Clp protease proteolytic subunit (Bacillus subtilis (strain 168)), P80244; purified B. subtilis ClpP, FRET peptide cleavage, 20 min; 340,000 tested, 1.9% active; Potency, µM (highest dose often 57.5 µM), without a hit: at the highest dose activity change, negative = active; AID 651965, 2013; active = well fitted falling curve with a large enough effect; inconclusive = small, poorly fitted or top-dose-only effect; inactive = no such curve, though single readings can be large or run the other way; note: potency is the fitted concentration of half-maximal effect; the source files actives as falling curves though it sought activators and does not explain the sign; nearly all actives have a fitted effect of over 65% in size; many hits overshoot -100%
Target sequence (P80244 whole entry, looked up): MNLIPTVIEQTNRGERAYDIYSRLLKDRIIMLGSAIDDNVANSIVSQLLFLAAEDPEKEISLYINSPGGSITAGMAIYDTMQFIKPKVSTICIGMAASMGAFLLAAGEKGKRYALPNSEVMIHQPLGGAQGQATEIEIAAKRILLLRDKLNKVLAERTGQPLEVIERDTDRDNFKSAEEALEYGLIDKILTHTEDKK
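ClpP 10 microg/mL final, pH 8 Tris/KCl buffer with BSA, glycerol, Tween-20; compound pinned in; FRET-FV substrate; RT 20 min; Ex320/Em430; ΔFRET vs ADEP 5.8 microM, DMSO, no enzyme.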
Menin MLL FP FL: displaces fluorescein MLL peptide from human menin | Fluorescence polarization, fluorescein-MLL peptide displacement from menin | FP activity change, % at 61.4 µM | 290,000 tested, under 10 active | AID 1766; inconclusive = falling polarisation curve, or a change in total fluorescence; inactive = total fluorescence flat and polarisation flat or rising; no compound was filed as active; the % refers to the polarisation; negative = inhibition;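 note: % of control where 0% means no effect; inhibitors lower the polarisation; unlabelled MLL peptide was the positive control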
* marks the source's active call; other numbers are inactive results; ? = inconclusive; . = not tested or not shown; & = joins results of further samples; [ ] = remark or other dose. A portion of the library. The share of hits here may be higher or lower than overall.

Screens by letter: A = gsp ag; B = TRPML1 blocker; C = TRPML1 ag; D = gsp antag; E = ClpP mod; F = Menin MLL FP FL
Cc1ccc(S(=O)(=O)N2[C@H](c3cccc(Cl)c3)CC(=O)[C@@H]3CN(S(=O)(=O)c4ccccc4C)[C@H](c4ccc(Cl)cc4)C[C@@H]32)cc1
  A: -61%[inhibitor]; B: -3; C: 1.6; D: .; E: -1.9%; F: .

COC(=O)C1=C(c2ccc(OCc3ccccc3)cc2)C[C@@H]2CC[C@H]1N2C(=O)NCc1ccc(OC)cc1
  A: -34%[inhibitor]; B: 2; C: 1.0; D: .; E: -4.2%; F: .

CCOP(=O)(OCC)C(NC(=O)CC(C)C)C(Cl)(Cl)Cl (configuration not stated)
  A: 0%[15.4 µM]; B: 8; C: -0.5; D: 2%; E: .; F: -0.1

CCN(C=C1CC2C3CC=C4CC(O)CCC4(C)C3CCC2(C)C1=O)CC (configuration not stated)
  A: 10%; B: 12; C: -0.3; D: -12%; E: .; F: .

Cc1cc(C(=O)OC(C)C(=O)Nc2ccccc2)c(C)n1C1CC1 (configuration not stated)
  A: 0%; B: 10; C: -1.4; D: .; E: 0.0%; F: .

Cc1ccc2c(c1)CC1(CN2C)C(=O)NC(=O)N(c2ccc(C)c(C)c2)C1=O (configuration not stated)
  A: 2%; B: -3; C: -0.3; D: -1%; E: -2.7%; F: 1.2

C=CCn1c(O)c(C(C)=NCCCN2CCOCC2)c(=O)[nH]c1=O
  A: 18%; B: 6; C: 0.6; D: -5%; E: -2.3%; F: 1.1

CC(/C=C(\C)Nc1ccccc1)=Nc1ccccc1
  A: -18%[15.4 µM]; B: -11; C: -0.1; D: -12%; E: .; F: -1.1

CN1C(=O)N(C)C(=O)C2(Cc3c(ccc4ccccc34)N(C)C2)C1=O
  A: 10%; B: -3; C: 0.1; D: -24%; E: -2.3%; F: -1.3

CCc1sc(C(=O)N2CCC3(CC2)OCCO3)cc1Br
  A: 6%; B: 7; C: -0.3; D: 0%; E: 1.0%; F: 3.4

Cc1cc(/C=C2\C(=O)NC(=O)N(Cc3ccccc3)C2=O)c(C)n1-c1ccc(Cl)c(C(=O)O)c1
  A: -14%; B: 25; C: -0.3; D: -9%; E: -4.0%; F: ?

CCOc1cc2c(cc1OCC)-n1cccc1C(c1ccccc1O)NC2 (configuration not stated)
  A: 0%; B: .; C: .; D: 17%; E: -0.3%; F: -0.8

COc1ccc(-c2nn(Cc3ccccc3)cc2C(=O)NC2CC2)cc1OC
  A: 16%[15.4 µM]; B: -7; C: 0.3; D: -6%; E: 1.0%; F: .

O=C(CN1C(=O)CN=C(c2ccccc2)c2ccccc21)NCc1ccco1
  A: -37%[inhibitor]; B: 10; C: -0.2; D: -10%; E: -3.2%; F: 8.4

Cn1c(O)c(/C=N/N2CCOCC2)c(=O)n(C)c1=S
  A: -2%[15.4 µM]; B: 9; C: 0.3; D: 5%; E: -2.4%; F: 2.4

O=C(COc1ccccc1)N1CCN(C2CCCC2)CC1
  A: -34%; B: 0; C: 0.3; D: 10%; E: -1.0%; F: -1.9

C[C@]12N[C@H](Cc3ccccc31)c1ccccc12
  A: .; B: 2&-9; C: -0.3&1.6; D: -8%&-6%; E: 1.3%&-2.5%; F: -2.9&0.4

CN(C)P(=O)(C(Cl)=C(N1CCCCC1)N1CCCCC1)N(C)C
  A: 1%; B: 0; C: -0.2; D: 5%; E: 0.6%; F: 1.0

CCC(C)N1Cc2ccccc2C1=N (configuration not stated)
  A: -59%[inhibitor]; B: 4; C: -0.4; D: 8%; E: 0.6%; F: 0.3

Fc1ccc(CNC2CN3CCC2CC3)cc1 (configuration not stated)
  A: 14%; B: -10; C: -0.8; D: 8%; E: 1.4%; F: -0.2

O=C1/C(=C\c2ccc(Cl)c(Cl)c2)N2CCC1CC2
  A: -4%[15.4 µM]; B: 10; C: 0.6; D: -1%; E: .; F: 0.6

CC(=O)Nc1nnc(CCN(CCc2nnc(NC(C)=O)s2)[N+](=O)[O-])s1
  A: 13%; B: -18; C: -0.8; D: 8%; E: .; F: 7.3

CC(C)CNC(=S)NC1CC2CCCC(C1)N2Cc1ccco1 (configuration not stated)
  A: -30%[inhibitor]; B: -10; C: -0.3; D: 2%; E: -1.2%; F: 1.7

O=C1NC(=O)N(Cc2ccc(F)cc2)C(=O)/C1=C\c1ccc([N+](=O)[O-])s1
  A: -6%; B: 14; C: 3.0; D: -27%; E: .; F: ?

CN(C)C(=O)Oc1ccnc2cc(Cl)ccc12
  A: 31%[15.4 µM]; B: 16; C: 0.5; D: 1%; E: .; F: 3.4

C[C@]12CC[C@H](O)C[C@H]1CC[C@@H]1[C@@H]2CC[C@]2(C)[C@@H](C3=CC(=O)OC3)CC[C@]12O
  A: .; B: -10; C: -0.3; D: -1%; E: -0.5%; F: .

CCOC(=O)c1ccc(-n2c(N)c(C(=O)NCC3CCCO3)sc2=S)cc1 (configuration not stated)
  A: ?; B: -17; C: 0.0; D: -1%; E: -0.4%; F: 1.0

COc1ccc(CC(=O)Nc2ccc3c(C(F)(F)F)cc(=O)oc3c2)cc1OC
  A: 6%; B: -2; C: 0.6; D: -4%; E: -6.2%; F: 4.7

CNS(=O)(=O)c1ccc(N=Cc2c(O)n(-c3ccccc3)c(=O)[nH]c2=O)cc1
  A: -3%; B: 2; C: -0.7; D: 12%; E: .; F: 19

Cc1cccc(OC(C)C(=O)NCC2(N(C)C)CCCCC2)c1C (configuration not stated)
  A: .; B: 15; C: -0.3; D: .; E: 0.9%; F: .

N#Cc1ccccc1NC(=O)CN1CC=C(c2ccccc2)CC1
  A: 4%[15.4 µM]; B: 27; C: -0.7; D: 11%; E: .; F: -1.3

Cc1ccc(C2CN(C)CC2C(=O)c2ccc(F)cc2)cc1 (configuration not stated)
  A: -1%; B: .; C: .; D: 14%; E: -3.4%; F: -1.7

Clc1cccc(CNCCc2c[nH]c3ccccc23)c1
  A: 8%[15.4 µM]; B: -16; C: -0.4; D: 13%; E: 1.6%; F: 5.7

CCC(=NCc1ccco1)c1c(O)[nH]c(=O)[nH]c1=O
  A: 3%; B: 9; C: -0.8; D: 8%; E: 1.6%; F: 1.7

COC(=O)C1=C(c2ccc(F)cc2OCc2ccccc2)C[C@@H]2CC[C@H]1N2C(=O)NCc1ccc2[nH]ccc2c1
  A: -10%; B: -3; C: 1.0; D: -13%; E: -0.7%; F: .

O=C(CSc1nnc(NC(=O)c2ccccc2[N+](=O)[O-])s1)NCc1ccco1
  A: -67%[inhibitor]; B: -11; C: 0.6; D: -2%; E: 1.4%; F: .

COC(=O)C1=C(c2cccc(OC)c2OC)C[C@@H]2CC[C@H]1N2C(=O)NCC1CC1
  A: .; B: 2; C: -0.3; D: 1%; E: -3.6%; F: .

O=C(NC1CN2CCC1CC2)c1cccc(Cl)c1 (configuration not stated)
  A: 19%[15.4 µM]; B: 19; C: 0.0; D: 0%; E: ?; F: -4.3

CCC1(C2=NCCN2)Cc2ccccc2O1 (configuration not stated)
  A: .; B: 4; C: 0.2; D: -1%; E: 0.1%; F: 0.7&0.9&1.7

CN(C(=O)Oc1ccc(Cl)c2cccnc12)c1ccccc1
  A: 22%; B: 5; C: -0.1; D: -14%; E: -5.4%; F: 10.0

CCCOC(=O)c1ccccc1C(=O)OCCC
  A: .; B: -4; C: 0.5; D: -17%; E: 1.7%; F: .

O=S(=O)(F)c1ccc2nc(-c3cccc(Sc4ccccc4)c3)cc(Cl)c2c1
  A: 21%; B: 1; C: -1.0; D: -15%; E: .; F: -0.2

N=C1C(c2ccccc2)=C(O)CN1Cc1ccco1
  A: -14%; B: 7; C: -0.3; D: 0%; E: 1.0%; F: 0.1

Cc1cccc(-n2c(/C=C/c3c[nH]c4ccccc34)nc3ccccc3c2=O)c1
  A: .; B: 59; C: 1.4; D: .; E: -2.7%; F: .

CC(C)n1c(=O)c(C=Nc2cccc([N+](=O)[O-])c2)c(O)n(CCc2ccccc2)c1=O
  A: 5%; B: 7; C: 0.2; D: -20%; E: 0.9%; F: 17

ClCC(Br)CBr (configuration not stated)
  A: .; B: -5; C: -0.2; D: -3%; E: -2.4%; F: .

N/C(=N\[N+](=O)[O-])N1CCN(C(=O)OC2CCCC2)CC1
  A: -6%; B: -7; C: 0.9; D: 1%; E: -2.6%; F: 3.3

FC(F)(F)Oc1ccc(C2NCc3ccccc3-n3cccc32)cc1 (configuration not stated)
  A: -2%; B: 28; C: 0.1; D: 0%; E: -1.0%; F: -6.5

Cn1c(O)c(/C=N/NC(=O)c2ccncc2)c(=O)[nH]c1=S
  A: ?; B: -16; C: 2.4; D: 6%; E: -11%; F: ?

Cn1cc(C=C(C#N)C#N)c2ccccc21
  A: -3%; B: -4; C: -0.5; D: -4%; E: -0.7%; F: ?

Cc1ccc(-n2c(O)c(/C=N/Nc3ccccc3)c(=O)[nH]c2=O)cc1C
  A: ?; B: -2; C: 0.1; D: -1%; E: .; F: 0.8

C=C(C)CSc1nnc([C@@H](N)Cc2c[nH]c3ccccc23)o1
  A: 7%; B: -6; C: -0.7; D: -10%; E: -1.7%; F: 9.5

CO[C@@H]1C=CC23c4cc5c(cc4CO[C@]2(O)CN(C)[C@H]3C1)OCO5 (some centres not stated)
  A: .; B: 24; C: 1.1; D: -4%; E: -3.3%; F: .

FC(F)=C(F)CCSc1ncn[nH]1
  A: 14%[15.4 µM]; B: 13; C: -0.2; D: .; E: .; F: 1.6

COc1ccc(CNCCc2c[nH]c3ccccc23)c(OC)c1C
  A: -13%[15.4 µM]; B: 4; C: 1.2; D: -11%; E: -3.8%; F: 4.6

COc1ccc(NC(=S)N2Cc3ccccc3-n3nncc3C2)c(OC)c1
  A: -25%; B: -11; C: -0.6; D: .; E: -2.1%; F: .

Compound profiles, as listed above. Values in the order: gsp ag | TRPML1 blocker | TRPML1 ag | gsp antag | ClpP mod | Menin MLL FP FL
Results for `N/C(=N\[N+](=O)[O-])N1CCN(C(=O)OC2CCCC2)CC1` = -6% | -7 | 0.9 | 1% | -2.6% | 3.3
Results for `Cc1ccc(-n2c(O)c(/C=N/Nc3ccccc3)c(=O)[nH]c2=O)cc1C` = ? | -2 | 0.1 | -1% | . | 0.8
Results for `FC(F)=C(F)CCSc1ncn[nH]1` = 14%[15.4 µM] | 13 | -0.2 | . | . | 1.6
Results for `Cn1cc(C=C(C#N)C#N)c2ccccc21` = -3% | -4 | -0.5 | -4% | -0.7% | ?
